Polio RdRp inh = poliovirus RNA polymerase inhibition; AID 588519; 150,000 compounds, 0.66% hits; P03300; % elongation, % (compound at 16.7 µg/mL); poliovirus polymerase elongation, fluorescence polarization; active compounds read low; in the data active means % elongation below about 90%; further: some results filed as inactive read as strong as hits
Target sequence (P03300 1749-2209 limits assumed): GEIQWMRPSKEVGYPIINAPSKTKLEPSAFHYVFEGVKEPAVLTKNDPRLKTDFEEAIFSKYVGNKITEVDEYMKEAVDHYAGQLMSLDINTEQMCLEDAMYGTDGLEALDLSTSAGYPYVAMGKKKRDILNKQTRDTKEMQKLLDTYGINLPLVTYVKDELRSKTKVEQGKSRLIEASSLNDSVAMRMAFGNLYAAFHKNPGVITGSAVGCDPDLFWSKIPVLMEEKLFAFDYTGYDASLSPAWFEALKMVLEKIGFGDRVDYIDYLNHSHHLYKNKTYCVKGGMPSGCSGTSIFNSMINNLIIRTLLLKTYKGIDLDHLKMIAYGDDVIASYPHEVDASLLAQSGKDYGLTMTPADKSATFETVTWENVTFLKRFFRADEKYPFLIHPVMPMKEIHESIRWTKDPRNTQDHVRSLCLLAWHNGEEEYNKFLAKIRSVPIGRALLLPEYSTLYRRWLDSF
Polio RdRp inh intensity = further read-out of Polio RdRp inh, marked with its call; % elongation; measured here: total intensity read-out; formula for this scale not given here;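 total fluorescence in place of polarization; lower means less elongation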
Numbers without * were called inactive. These rows are one share of the data. The share of hits here may be higher or lower than overall.

molecule,Polio RdRp inh,Polio RdRp inh intensity
COc1ccc(-c2ccc(NS(=O)(=O)c3ccc(NC(C)=O)cc3)cc2)nn1,101.0,103.0
O=C(CN1CCCN(Cc2cccc(Cl)c2)S1(=O)=O)Nc1ccc2c(c1)OCCO2,107.0,110.0
Cc1ccc(C)c(NC(=O)Cn2c(=O)n(Cc3ccccc3)c(=O)c3oc4ccccc4c32)c1,108.0,113.0
CC(C)c1ccc(OCc2cc(=O)n3c4c(sc3n2)CCCC4)cc1,107.0,109.0
CCC(CC)C(=O)Nc1nnc2n1CCS2,111.0,101.0
Cc1cc(C)cc(NC(=O)CCS(=O)(=O)c2ccc3nc(C)sc3c2)c1,101.0,104.0
Cc1cccc(NC(=O)CCc2c(C)nc3c(c(C)nn3C(C)(C)C)c2C)c1C,103.0,106.0
O=c1n(Cc2cccc(F)c2)c2ccccc2c2nc(-c3ccccc3)nn12,105.0,109.0
Cc1nc(-c2ccc(Cl)cc2)sc1CCNC(=O)c1ccco1,108.0,105.0
CCc1ccc(-n2nc(CO)c(C(=O)NCc3ccccc3Cl)n2)cc1,108.0,112.0
Cc1ccc(-n2nc3cc(C)c(NC(=O)c4ccc(-c5ccccc5)o4)cc3n2)cc1,103.0,105.0
CCc1ccc(NC(=O)Cn2nc3c4ccccc4n(Cc4ccccc4)cc-3c2=O)cc1,111.0,112.0
CSc1ncc2c(n1)-c1ccccc1N(Cc1ccc(Cl)cc1)S2(=O)=O,105.0,115.0
CCCCn1c(CNC(=O)C23CC4CC(CC(C4)C2)C3)nnc1SCC(=O)Nc1ccc(C)cc1,105.0,107.0
Cc1cc(C)cc(NC(=O)CCc2c(C)nc3c4cccnc4nn3c2C)c1,106.0,107.0
COc1cc(CN(C(=O)COc2ccc(C)c(C)c2)c2ccccn2)cc(OC)c1OC,104.0,108.0
CN1C(=O)Cc2cc(S(=O)(=O)NCCc3ccc(Cl)cc3)ccc21,111.0,107.0
O=C(CCS(=O)(=O)c1cc2c(cc1Cl)NC(=O)CO2)NCc1ccccc1Cl,111.0,111.0
Cc1ccccc1Cn1c(CN2CCN(c3cc(Cl)ccc3C)CC2)nc2c1c(=O)[nH]c(=O)n2C,102.0,102.0
COc1ccc(C)cc1NC(=O)N1CCCn2nc(C)cc21,102.0,104.0
Cc1cc(-c2nc3ncccc3o2)ccc1NC(=O)c1ccccc1Br,102.0,105.0
CC1CCc2nn(CC(=O)Nc3cccc(C(F)(F)F)c3)c(=O)cc2C1 (centres undefined),110.0,116.0
Cc1cccc(CCNC(=O)C2CCC(CNS(=O)(=O)c3ccccc3)CC2)c1 (centres undefined),103.0,112.0
COCCCNC(=O)CSc1nc2c(sc3ccccc32)c(=O)n1CCCC(=O)NCCOC,103.0,108.0
Cc1ccccc1CNC(=O)c1ccc(NC(=O)c2nsc3ccccc23)cc1,111.0,110.0
Cc1ccc(NC(=O)c2c(C)oc3ncn(CC(C)C)c(=O)c23)nc1,98.0,94.0
COc1ccc(C(=O)N2CCCCC2CCN2CCOCC2)cc1 (centres undefined),111.0,114.0
Cc1cc(=O)n2nc(N(C)CC(=O)NCc3ccccc3C)sc2n1,107.0,110.0
COc1cccc2cc(-c3nc(-c4ccc(C)cc4)c(C)s3)c(=O)oc12,115.0,128.0
Fc1ccccc1-n1ncc2c1ncn1nc(-c3ccccc3Cl)nc21,115.0,116.0

A different layout for some results above:
Below each compound – Polio RdRp inh, Polio RdRp inh intensity
> Cc1cc(C)cc(NC(=O)CCc2c(C)nc3c4cccnc4nn3c2C)c1
  106.0, 107.0
> Cc1ccc(C)c(NC(=O)Cn2c(=O)n(Cc3ccccc3)c(=O)c3oc4ccccc4c32)c1
  108.0, 113.0
> Cc1ccccc1Cn1c(CN2CCN(c3cc(Cl)ccc3C)CC2)nc2c1c(=O)[nH]c(=O)n2C
  102.0, 102.0

The list goes on.
molecule,Polio RdRp inh,Polio RdRp inh intensity
Cc1ccc(CNc2ncnc3c2nc2n3CCCC2)cc1,109.0,116.0
CCOc1ccc(NS(=O)(=O)c2cc3c(cc2Cl)NC(=O)CO3)cc1,106.0,111.0
CCCN1CCN(CCCNC(=O)Cn2nc(C)n3c(cc4c(OC)cccc43)c2=O)CC1,109.0,112.0
COc1cccc(CN2C(=O)C3(SCC(=O)N3c3cc(C)cc(C)c3)c3ccccc32)c1 (centres undefined),98.0,104.0
CSc1ccc(CNC(=O)C2CCN(c3nnc(-n4cccc4CNc4ccc(C)cc4)s3)CC2)cc1,104.0,106.0
Cc1ccc(-c2cc(N)n(Cc3cccc(Cl)c3)n2)cc1,101.0,103.0
COc1ccc(CN2CCN(Cc3cc(=O)oc4cc(C)ccc34)CC2)c(OC)c1OC,108.0,99.0
Cc1sc2c(c1C)c(=O)n(Cc1ccccc1)c(=O)n2CC(=O)N(C)c1ccccc1,106.0,114.0
CC(=O)Nc1ccc(S(=O)(=O)NCCc2cn3ccsc3n2)cc1,99.0,120.0
COc1cc(CN2CCc3nc(N4CCN(c5ccccc5F)CC4)ncc3C2)ccc1OC(C)C,96.0,95.0
COc1cccc(Cn2c(CNS(=O)(=O)c3ccc4c(c3)CCCC4)nc3cccnc32)c1,107.0,109.0
CC1CCN(C(=O)C(C)Sc2nc(-c3ccccc3)cc(C(F)(F)F)n2)CC1 (centres undefined),101.0,96.0
COc1cc(NC(=O)CCCc2nnc3n(CC(C)C)c(=O)c4sccc4n23)cc(OC)c1,110.0,112.0
COc1ccc(C)cc1NC(=O)c1ccc2c(c1)CCN2S(=O)(=O)c1ccc(Cl)cc1,108.0,113.0
CCN(C(=O)C1CCC(CNS(=O)(=O)c2cccc3nsnc23)CC1)c1ccccc1 (centres undefined),105.0,109.0
CCOC(=O)c1c(Oc2ccc(C(=O)OC)cc2)nnc(-c2ccccc2)c1-c1ccccc1,105.0,110.0
Cc1ccc(S(=O)(=O)c2cn(CC(=O)Nc3ccc(C)c(Cl)c3)c3ccc(C)cc3c2=O)cc1,108.0,114.0
COc1cccc(-c2ccc(-c3noc(-c4ccccc4Br)n3)c(OC)n2)c1,109.0,113.0
O=C(Nc1nc2c(F)cc(F)cc2s1)c1ccc2c(c1)OCCO2,111.0,113.0
Cc1c(Cl)cccc1NC(=O)Cn1c(=O)n(Cc2nc(-c3ccccc3)no2)c(=O)c2cc3c(cc21)OCO3,103.0,97.0
CC(C)c1cc(-c2nc(-c3cccc(Cl)c3)no2)n[nH]1,99.0,96.0
COc1ccc(-c2cc(C)no2)cc1S(=O)(=O)NC(C)C,105.0,111.0
Cc1ccc(NC(=O)CN2C(=O)CC(c3ccc(F)cc3)=Nc3ccccc32)cc1F,101.0,107.0
O=C(C1CCC1)N1CCc2cc(S(=O)(=O)NCc3ccc(F)cc3)ccc21,111.0,113.0
CCOc1ccc(NC(=O)C(=O)NCc2ccco2)cc1,103.0,107.0
Cc1ccccc1S(=O)(=O)Cc1ccc(C(=O)NCCc2ccccc2)o1,98.0,102.0
COc1ccc(S(=O)(=O)NCC(c2ccco2)N2CCN(c3ccccc3F)CC2)cc1OC (centres undefined),112.0,116.0
O=C(Nc1cccc(C(F)(F)F)c1)C1CCN(S(=O)(=O)c2cccs2)CC1,103.0,105.0
CCOC(=O)c1c(C)[nH]c(C)c1S(=O)(=O)N1CCC(C(=O)N2CCN(c3cccc(C)c3C)CC2)CC1,113.0,109.0
COc1ccc(C)cc1NC(=O)c1c2c(nc3ccccc13)C(=O)N(C1CCCCC1)C2,103.0,109.0
O=C(CSc1nnc(-c2ccccc2F)o1)Nc1cccc(C(F)(F)F)c1,101.0,106.0
Cn1c(SCc2ccc(F)cc2)nc2ccc(C(=O)NCc3ccc(F)cc3)cc21,113.0,114.0
Cc1ccccc1S(=O)Cc1ccc(C(=O)N2CCN(c3cccc(C)c3C)CC2)o1 (centres undefined),107.0,110.0
COc1ccc(OC)c(NC(=O)c2nc(SCc3ccccc3F)ncc2Cl)c1,114.0,109.0
Cc1ccc(Cn2c(SCc3ccc(C(=O)O)cc3)nc3cccnc32)cc1,113.0,107.0
Cc1cc(C)c(NC(=O)Cn2c(SCC(=O)NCc3ccccc3)nc3ccccc32)c(C)c1,101.0,111.0
O=C(NCCCN1CCN(c2ccccc2F)CC1)c1sc2ncccc2c1-n1cccc1,110.0,116.0
Cc1ccc(-c2cn3c(n2)sc2cc(C(=O)N4CCCCC4)ccc23)cc1,104.0,104.0
Cc1ccc(-c2nnc(Nc3ccc(Br)cc3)c3ccccc23)cc1S(=O)(=O)N1CCCCC1,102.0,104.0
Cc1nn(CCCC(=O)NCCc2ccc(Cl)cc2)c(=O)c2c1sc1ccccc12,109.0,114.0
CCOc1ccc(NC(=O)Cn2cc(C(=O)c3ccc(C)c(C)c3)c(=O)c3cc(OC)c(OC)cc32)cc1,104.0,108.0
COc1ccc(NC(=O)C(C)n2nnc3sc(-c4ccccc4)cc3c2=O)cc1Cl (centres undefined),76.0*,72.0*
COc1ccccc1/C=C/c1nc(C#N)c(N2CCN(c3ccccc3)CC2)o1,99.0,93.0
COc1ccccc1N1CCN(S(=O)(=O)c2c(C)sc3ncn(CC(=O)Nc4cccc(Cl)c4)c(=O)c23)CC1,101.0,106.0
Cc1cccc(CSc2cn(CC(=O)N3CCOCC3)c3ccccc23)c1,116.0,113.0
O=C(Cn1cc(S(=O)(=O)Cc2ccccc2F)c2ccccc21)NCc1ccccc1,110.0,111.0
COc1ccc(OC)c(CCNC(=O)CS(=O)(=O)Cc2nc(-c3cccc(Cl)c3)oc2C)c1,101.0,105.0
COc1ccc(C2N=C(N)Nc3nc4ccccc4n32)cc1 (centres undefined),101.0,104.0
Cc1ccc(C)n1-c1nnc(N2CCC(C(=O)Nc3ccccc3Br)CC2)s1,111.0,112.0
COc1ccc(CCNC(=O)Cn2c(=O)nc(-c3ccccc3F)c3cc(Cl)ccc32)cc1OC,108.0,107.0
Cn1ccc2cc(S(=O)(=O)N3CCCC(C(=O)NCc4ccc(F)cc4)C3)ccc21 (centres undefined),103.0,108.0
CCc1ccc(NC(=O)Nc2ccccc2OCc2cc(=O)n3ccccc3n2)cc1,106.0,107.0
Cc1ccc(C)c(N2CCN(C(c3ccccc3)c3nnc(-c4ccccc4)o3)CC2)c1 (centres undefined),105.0,108.0
COc1ccccc1-c1noc(-c2ccc(NCc3ccco3)c([N+](=O)[O-])c2)n1,114.0,115.0
Cc1cccc(-c2nc(CCNC(=O)Cc3ccccc3)cs2)c1,104.0,107.0
CCc1ccccc1NC(=O)CN(c1ccccc1)S(=O)(=O)c1ccsc1C(=O)OC,100.0,97.0
Cn1cc(S(=O)(=O)N2CCCCCC2)cc1C(=O)Nc1ccccc1F,104.0,102.0
CCOc1ccc(Cn2c(=O)oc3ccccc32)cc1,104.0,104.0
O=S(=O)(NCc1ccc(Cl)cc1)c1ccc(-c2cnc(C3CC3)o2)cc1,105.0,106.0
Cc1ccc(S(=O)Cc2nc(-c3ccc(C(=O)NCc4cccc(C)c4)cc3)oc2C)cc1 (centres undefined),112.0,111.0

5 compounds from above, ordered by molecular weight, largest number first.
molecule,Polio RdRp inh,Polio RdRp inh intensity
CSc1ccc(CNC(=O)C2CCN(c3nnc(-n4cccc4CNc4ccc(C)cc4)s3)CC2)cc1,104.0,106.0
CCOc1ccc(NC(=O)Cn2cc(C(=O)c3ccc(C)c(C)c3)c(=O)c3cc(OC)c(OC)cc32)cc1,104.0,108.0
COc1ccc(NC(=O)C(C)n2nnc3sc(-c4ccccc4)cc3c2=O)cc1Cl (centres undefined),76.0*,72.0*
O=C(Nc1nc2c(F)cc(F)cc2s1)c1ccc2c(c1)OCCO2,111.0,113.0
Cc1ccc(-c2cc(N)n(Cc3cccc(Cl)c3)n2)cc1,101.0,103.0

Continued:
molecule,Polio RdRp inh,Polio RdRp inh intensity
COc1cccc(-c2nnc(SCC(=O)N3CCCCC3)o2)c1,104.0,103.0
Cc1cccc(NC(=O)Cn2cc(C(=O)c3ccco3)c3ccccc32)c1,107.0,106.0
CC(C)(C)C1CCc2nc(NC(=O)c3ccc([N+](=O)[O-])cc3)sc2C1 (centres undefined),107.0,101.0
COc1ccc(N2CCN(c3ncnc4c3nnn4C)CC2)cc1,111.0,111.0
COCCCN1CCc2nc(SCC(=O)Nc3ccc(C)c(Cl)c3)[nH]c(=O)c2C1,106.0,109.0
Cc1ccc(-n2c(SCC(=O)NCc3ccccc3)nc3c([nH]c4ccccc43)c2=O)cc1,103.0,103.0
Cc1ccc(-n2ncc(C(=O)N3CCN(C(=O)c4ccco4)CC3)c2C2CCN(C(=O)OC(C)(C)C)CC2)cc1,105.0,105.0
COc1cccc(OCc2nc3ccccc3n2CCOc2cccc(C)c2)c1,108.0,108.0
COC(=O)c1ccc(NC(=O)N2CCN(Cc3cc(=O)n4nc(-c5ccc(C)cc5)sc4n3)CC2)cc1,108.0,115.0
CCc1ccc(C(=O)CSc2nc(-c3ccccc3)nc3c2CCCC3)cc1,107.0,109.0
CCCOc1ccc(C(=O)N(Cc2ccccc2Cl)C2CCS(=O)(=O)C2)cc1 (centres undefined),99.0,101.0
Cc1ccc2c(c1)N(C(=O)N1CCC(C(=O)NC3CCCCCC3)CC1)CC(C)O2 (centres undefined),109.0,112.0
Cc1ccc(CNC(=O)c2oc3ccc(S(=O)(=O)N4CCCC(C)C4)cc3c2C)cc1 (centres undefined),106.0,109.0
CCC(Oc1ccc(F)cc1)C(=O)Nc1c(C(=O)c2ccc(C)cc2)oc2ccccc12 (centres undefined),110.0,112.0
Cc1cc(NC(=O)Nc2nnc(N(C)Cc3ccccc3)s2)ccc1Br,105.0,113.0
CCc1ccccc1N1C(=O)N(C)c2ccccc2S1(=O)=O,107.0,108.0
CCOC(=O)CCCCN(Cc1ccccc1F)S(=O)(=O)c1ccc(F)c(C(=O)Nc2cc(Cl)cc(Cl)c2)c1,105.0,108.0
Cc1cc(C)c(C#N)c(SCC(=O)Nc2ccccc2C#N)n1,103.0,106.0
